PrP UTR inh: suppresses PrP 5' UTR mRNA reporter expression. cell-based PrP 5' UTR mRNA reporter, plate reader. inhibition, % (test concentration not listed). 340,000 tested, 0.35% active. AID 488862;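 active means every replicate at 50% or more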;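 further: 0 = median of the neutral control wells; tested in H4 reporter cells; numbers are from one replicate; inactives centre near -14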
Mtb hypoxia inh: reduces hypoxia-regulated biosensor signal in M. tuberculosis. M. tuberculosis hypoxia-regulated fluorescent reporter, fluorescence. fluorescence inhibition, % (concentration not given with the values). 300,000 tested, 0.1% active;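 active means 35 to 45% if threefold the growth effect, above 45% if 1.5-fold the growth effect; inactive means the rest, general growth blockers included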;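 further: wells of about 50 µL received 100 nL stock; 0% = vehicle wells and 100% = reference inhibitor wells; whole bacteria with a GFP reporter of the hypoxia response; strong numbers were not always called active; many hits fall short of the cut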
ugtP null kill: compounds lethal to S. aureus RN4220 ugtP deletion mutant | OD600 growth, 16 h; some inactives read as strong as hits | growth inhibition, % (no concentration beside the values) | 330,000 tested, 0.54% active | AID 1259309;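 active means z-score under -3 and OD600 up to 0.15 on both plates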;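 further: plate controls were untreated wells for no effect and antibiotic for full effect; wells of about 80 µL received 100 nL stock; the first replicate is given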
Autofluor counter: counter-screen for toxin protease inhibitors: compound fluorescence; compound autofluorescence counterscreen, microsphere flow cytometry; hits give high values; fluorescence intensity (no concentration beside the values); 360,000 tested, 3.1% active; AID 624483;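 active means at least 3 SD above the mean of all compounds, about 16000 in these data; inconclusive means too few beads counted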;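 further: 100 nL of 1 mM stock went into each well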
RN4220 kill: S. aureus RN4220 growth inhibition; inhibition, % (concentration not given with the values); 330,000 tested, 0.33% active; OD600, 16 h;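 active means z-score of -3 or lower and OD600 up to 0.18 on both plates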;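 further: plate controls were untreated cells for no effect and reference antibiotic for full effect; stock transfer was 100 nL into about 80 µL; one replicate is shown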
BJeLR viability: kills HRASV12-expressing BJeLR cells | BJeLR (HRASV12) viability, CellTiter-Glo ATP luminescence, 48 h; reference of the scale not given here | inhibition, % (concentration not given with the values) | 300,000 tested, 0.17% active | AID 1554;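 active means replicate mean above 50%; inconclusive means above 50% but judged a plate artefact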;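 further: 50 nL library stock added to about 25 µL; numbers are from one replicate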
Mtb hypoxia inh growth: further read-out of Mtb hypoxia inh, marked with its call; growth inhibition, %; measured here: M. tuberculosis growth (absorbance);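 0% = vehicle and 100% = reference antibiotic; read after six days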
Starred values were filed as active, the others as inactive; ? = inconclusive; . = not tested or not shown. Compounds as they come; overall some 4% were active at least once.

Second line of a record – PrP UTR inh	Mtb hypoxia inh	Mtb hypoxia inh growth	ugtP null kill	Autofluor counter	RN4220 kill	BJeLR viability
1: COc1cccc(NC(=O)CN2C(=O)NC(C)(CCC(C)C)C2=O)c1 (configuration not stated)
  -52	9	5	1	2245	4.4	1
2: CCOC(=O)C1=C(O)CSC1=Nc1ccc(Cl)cc1
  -10	10	2	6	16689*	5.5	3
3: COc1ccc([N+](=O)[O-])cc1NC(=S)Nc1ccccc1
  -13	3	7	-3	3148	7.0	0
4: CCOC(=O)C1CCCN(C(=O)CN2C(=O)COc3ccc(C(C)(C)C)cc32)C1 (configuration not stated)
  -29	3	2	5	10234	3.6	-5
5: CCN(CC)CCNc1ncnc2c1sc1nc(N3CCCC3)c3c(c12)CC(C)(C)OC3
  13	22	30	12	4948	4.5	0
6: CC(C)(C)N(Cc1cc2ccccc2[nH]c1=O)C(=O)c1cccnc1
  -7	.	.	5	4749	-2.6	10
7: CC1Oc2ccccc2C=C1/C=N/NC(=O)c1ccccc1 (configuration not stated)
  -86	.	.	.	2734	.	7
8: CCOC(=O)c1c(C)n(C)c2ccc(OCC(O)CN3C(=O)c4ccccc4S3(=O)=O)cc12 (configuration not stated)
  -9	-2	-4	-2	8687	4.9	-11
9: CCC(C)NC(=S)N(Cc1cc2cc(C)ccc2n2nnnc12)CC(C)(C)NC(C)C (configuration not stated)
  -11	17	5	9	3931	2.8	-9
10: Cc1nn(Cc2ccccc2)c(Cl)c1C(=O)OCC(=O)Nc1cccc2ccccc12
  -16	-10	0	7	2099	2.4	-6
11: O=C(Nc1ccc(NC(=O)c2cc3ccccc3o2)cc1)c1ccc2c(c1)OCCO2
  7	9	4	11	3180	4.4	-1
12: CC(=O)Nc1ccc(S(=O)(=O)N(C)c2ccc(OCC(=O)Nc3ccccc3C(C)=O)cc2)cc1
  -7	3	8	-4	6433	1.6	.
13: COc1cccc(C(=O)NCCS(=O)(=O)NCc2ccco2)c1
  -9	3	4	5	?	2.1	11
14: CC(=O)Nc1ccc(NC(=O)Nc2ccc(C)c(C)c2)cc1
  -12	-9	-2	-3	2483	3.3	3
15: COc1ccccc1CN1CC(C(=O)NC2CCOCC2)CCC1=O (configuration not stated)
  -15	10	3	5	4608	2.6	-9
16: Cc1ccc(OCC(=O)N(Cc2ccccc2)C(C)(C)C)c([N+](=O)[O-])n1
  -7	10	7	4	7436	4.3	3
17: CCCCOc1ccc(/C(N)=N/O)cc1
  -2	8	10	5	5892	7.2	-10
18: CN1C(=O)C(=Cc2ccc(Sc3ccccc3)o2)C(=O)N(C)C1=S
  -14	-3	-6	0	4786	0.8	-3
19: COc1ccc(/C=N/N2CCOCC2)cc1O
  -27	.	.	.	2449	.	20
20: CCCc1cc(=O)oc2cc(OCC(=O)NCCc3c[nH]c4ccccc34)ccc12
  -19	.	.	21	4285	2.4	7
21: Cc1cccc(C(OC(=O)c2ccco2)C(=O)NCc2ccccc2)n1 (configuration not stated)
  -7	11	9	4	5170	5.6	3
22: N#Cc1ccccc1OCC(=O)N1CCc2ccccc2C1
  -19	2	-7	5	4758	5.3	11
23: CCN(CC(=O)NCc1cccs1)C(=O)c1ccccc1Cl
  -7	-8	-3	7	3780	14	1
24: Cc1ccccc1C1CC(c2ccc(F)cc2)Nc2nc(N)nn21 (configuration not stated)
  -16	.	.	2	4513	1.4	-7
25: Cc1ccc(NC(=S)Nc2ccc3nc(-c4ccccn4)c(-c4ccccn4)nc3c2)cc1C
  -26	8	4	-4	2472	0.9	.
26: COc1cc(/C=C(\C#N)C(N)=O)ccc1OS(=O)(=O)c1ccc(C)cc1
  -8	13	2	-3	2074	3.8	7
27: CCN(C(=O)COC(=O)c1ccccc1NC(=O)c1ccco1)C1CCS(=O)(=O)C1 (configuration not stated)
  2	5	24	2	4199	2.5	-1
28: Cc1cc(Cn2nc(-c3ccccc3)cc2C(=O)NCc2cccc(Br)c2)on1
  -10	.	.	.	4723	.	11
29: CCN1CCN(CCC(=O)Nc2ccc3c(c2)OCO3)CC1
  -6	4	1	4	2322	6.9	7
30: Cc1ccc(/C=N/NC(=O)c2cccs2)o1
  -34	.	.	.	1986	.	-14
31: CCOc1cc(/C=N/Nc2nc(N3CCCCC3)nc(N3CCCCC3)n2)ccc1OC(=O)c1ccco1
  -17	.	.	.	2783	.	-6
32: COc1ccc(N(C(=O)c2ccco2)S(=O)(=O)c2cccs2)cc1
  -20	18	14	-5	3846	-6.5	-5
33: CN(C(=O)CSC(=O)c1ccccc1)c1ccccc1
  12	6	6	2	5913	0.6	-6
34: NCCNC(=O)c1ncsc1-c1cccc(F)c1
  -18	4	12	-2	6729	7.9	2
35: O=C(NCc1ccco1)c1cc(-c2ccccn2)nc2ccccc12
  -19	3	7	-9	8709	-3.8	-5
36: Nc1ccc(C(=O)N2N=C(c3ccccc3)CC2(O)C(F)(F)F)cc1 (configuration not stated)
  -33	-3	4	-2	3604	13	11
37: Cc1ccc(Nc2nc3ccccc3nc2-n2nc(C)cc2C)cc1
  -15	3	12	42	5307	-9.4	12
38: Cc1csc(-c2cnn(-c3ccccc3)c2NC(=O)c2ccc(C(F)(F)F)cc2)n1
  -21	-4	6	-13	2602	1.8	5
39: COc1ccc(NS(=O)(=O)c2cc(NC(=O)c3cc(F)c(F)c(F)c3F)ccc2N2CCCC2)cc1
  -11	8	3	5	4805	21	0
40: CC(=O)Nc1nc(C)c(C(C)C)s1
  -16	-14	6	1	4543	6.8	-3
41: COC(=O)C1CCN(c2c([N+](=O)[O-])cc(C(F)(F)F)cc2[N+](=O)[O-])CC1
  -5	.	.	16	2443	-1.7	-8
42: COc1ccc(C=Nn2cnc3c([nH]c4ccccc43)c2=O)cc1COc1ccccn1
  .	-13	-10	5	.	-9.2	.
43: CCN(CC)CCCNC(=O)C1CCC(CNS(=O)(=O)c2c(C)cc(C)cc2C)CC1 (configuration not stated)
  4	-3	3	5	3558	2.4	2
44: CC1CCCN(C(=O)CCS(=O)(=O)c2cc3c(cc2Cl)NC(=O)CO3)C1 (configuration not stated)
  0	-4	10	2	5365	11	15
45: CCN(CC)C(=O)c1[nH]cnc1C(=O)Nc1ccc(OC)cc1
  -17	7	13	4	2960	4.0	4
46: COC(=O)c1ccccc1NC(=O)[C@@H]1CCC(=O)N1C1OC(=O)c2c1ccc(OC)c2OC (some centres not stated)
  -3	.	.	13	5400	3.7	1
47: COC(=O)c1c(-c2ccc(F)cc2)noc1N
  -22	6	5	6	10879	1.9	1
48: Cc1ccc(-n2c(C)cc(/C=N/NC(=O)c3ccncc3)c2C)cc1C
  -27	.	.	.	4461	.	2
49: S=C(Nc1ccc2nsnc2c1)NC1CCCCC1
  -6	9	-4	-10	2378	-1.5	4
50: CCOC(=O)C1(N(CC)CC)Sc2cc(C)ccc2NC1=O (configuration not stated)
  -3	4	-1	-1	9604	4.4	11

(cont.)
Second line of a record – PrP UTR inh	Mtb hypoxia inh	Mtb hypoxia inh growth	ugtP null kill	Autofluor counter	RN4220 kill	BJeLR viability
51: COc1ccc(CNC(=O)C(=O)NCC2OCCN2S(=O)(=O)c2ccc(OC)cc2)cc1 (configuration not stated)
  -8	-12	-15	-1	5801	-0.7	-7
52: COc1ccc(C)cc1S(=O)(=O)N1CCCC(C(=O)N2CCN(c3ccccc3)CC2)C1 (configuration not stated)
  10	9	4	12	?	2.5	-1
53: Cc1noc(NS(=O)(=O)c2ccc(N3C(=O)c4ccccc4C3=O)cc2)c1C
  -3	16	11	7	4288	2.4	3
54: CN(C)C(=O)c1nnc(Cc2ccc(Cl)cc2)o1
  -9	.	.	-10	6534	1.4	-10
55: CSc1ccccc1NC(=O)COc1ccccc1C
  -39	17	9	5	4838	23	3
56: O=C(CNC(=O)c1ccc(-c2ccccc2)cc1)Nc1ccc(S(=O)(=O)Nc2ncccn2)cc1
  -27	11	12	8	6111	8.0	4
57: C/C(CC(=O)Nc1ccc(N(C)C)cc1)=N\NC(=O)c1ccccc1O
  -17	.	.	.	3944	.	-4
58: O=C(NCCN1CCN(Cc2ccccc2)CC1)c1ccc(CS(=O)(=O)c2ccc(Br)cc2)o1
  -7	-9	0	-6	5511	-6.7	9
59: CC(=O)Nc1cccc(C(=O)/C=C/c2ccc(F)cc2)c1
  18	21	5	-8	1965	11	0
60: COc1ncnc2c1oc1nc(CC(C)C)c3c(c12)CC(C)(C)OC3
  3	-4	6	-6	23399*	-3.1	3
61: Nc1nc(CSc2ccccc2)nc(N2CCCCC2)n1
  -33	6	5	5	2054	8.0	8
62: CCCNC(=O)Cn1cnc2sc(C(=O)N3CCN(Cc4ccc5c(c4)OCO5)CC3)c(C)c2c1=O
  5	-10	-2	6	2435	7.6	15
63: CCn1nnnc1SCC(=O)Nc1nc(C)c(C)s1
  -22	3	2	6	4391	4.3	4
64: C=CCN1C(=O)/C(=N/n2cnnc2)c2ccccc21
  -21	.	.	.	3453	.	0
65: Cc1ccc(C)c(CN2CCC(CNC(=O)Nc3ccc(Cl)cc3)CC2)c1
  -14	-11	7	3	3887	-6.3	-17
66: Cn1c(-c2ccc3nc(N)sc3c2)nc2cc(N)ccc21
  -36	10	16	11	3279	14	7
67: CCSc1nnc(-c2cccnc2)n1-c1ccc(C)c(Cl)c1
  -20	1	5	15	7766	0.9	2
68: N#CCCN(C(=O)COC(=O)c1ccc(S(=O)(=O)N2CCOCC2)cc1)c1ccccc1
  5	6	7	5	3666	1.8	.
69: CC1CCCCN1CCCNc1ccc(C(CC(N)=O)NC(=O)Cc2ccc(Br)cc2)cc1[N+](=O)[O-] (configuration not stated)
  -4	18	4	-4	3819	4.6	1
70: COCCNC(=O)c1ccc2c(=O)n(Cc3ccco3)c(SCC(=O)NC3CCCC3)nc2c1
  -23	9	17	-5	21828*	7.4	-1
71: CCOC(=O)Cn1c(=O)n(Cc2ccco2)c(=O)c2ccc(C(=O)NCCc3ccccc3)cc21
  -29	7	10	2	3880	0.8	-8
72: CC1CCCC(NC(=O)CN2C(=O)NC(Cc3c[nH]c4ccccc34)C2=O)C1C (configuration not stated)
  -13	4	10	4	8333	4.0	.
73: NC(=O)NCc1ccc(C(=O)OCc2ccncc2)cc1
  -12	2	6	-18	4084	-1.3	-2
74: CCN(Cc1ccccc1)C(=O)CN1C(=O)c2ccccc2S1(=O)=O
  5	0	5	1	?	1.6	-1
75: Cc1[nH]c2ccccc2c1C(=O)CSCC(=O)O
  -9	5	9	0	23554*	3.3	-5
76: CCCCn1nnnc1SCC(=O)NNC(=O)c1ccco1
  -13	5	9	-7	3579	6.2	1
77: COc1ccc(NC(=O)CN(C)C(=O)c2c(C)nn(-c3ccccc3)c2Cl)cc1
  -14	5	-4	-1	?	6.9	-1
78: Nc1ncnc2c1ncn2CCN1CCOCC1
  -21	.	.	0	2399	1.2	-7
79: CCCCNC(=O)Nc1ccccc1C(=O)NCCC
  -7	14	7	3	9060	3.7	-2
80: O=C(N/N=C/c1cccc(F)c1)c1ccc(Cl)cc1
  -57	.	.	.	2101	.	-6
81: C/C(=N\NC(=O)c1ccco1)c1ccc(NC(=O)c2cccs2)cc1
  -68	.	.	.	9894	.	2
82: CCOc1ccccc1NC(=O)CCNS(=O)(=O)c1ccccc1
  -21	-3	10	0	6169	7.9	15
83: CCN(Cc1ccccc1)C(=O)c1cccnc1
  -13	-11	-3	-7	4481	-5.4	-9
84: Cc1cccc(OCCN2CSC(=S)N(C)C2)c1
  -17	.	.	.	2219	.	5
85: C/C(=C\C(=O)c1ccc(Cl)cc1)Nc1ccc(N2CCOCC2)cc1
  -24	-1	-2	10	16147*	3.6	1
86: Cc1ccc(NC(=O)CNS(=O)(=O)c2cccs2)cc1F
  -8	9	11	5	7433	4.1	-11
87: CC(Sc1nc2c(N)ncnc2n1CCOc1ccccc1)C(=O)O (configuration not stated)
  -9	3	-10	4	3719	-0.3	-3

Compound profiles (already shown). Order of values: PrP UTR inh	Mtb hypoxia inh	Mtb hypoxia inh growth	ugtP null kill	Autofluor counter	RN4220 kill	BJeLR viability
C/C(=N\NC(=O)c1ccco1)c1ccc(NC(=O)c2cccs2)cc1 as listed: -68	.	.	.	9894	.	2
Cc1cccc(OCCN2CSC(=S)N(C)C2)c1 as listed: -17	.	.	.	2219	.	5
Cc1ccc(NC(=O)CNS(=O)(=O)c2cccs2)cc1F as listed: -8	9	11	5	7433	4.1	-11

Screening data deposited in PubChem by several laboratories.
